# AID504770 – growth inhibition of E. coli YBA685, primary screen, V. cholerae RctB inhibitors | E. coli YBA685 rctB-dependent plasmid, OD600 growth, 3 h; stronger effect = lower value | z-score (concentration not given with the values) | 130,000 compounds, 0.27% hits | AID 504770, 2011;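 active means z-score under -2 on both plates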;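 further: wells of about 30 µL received 100 nL stock; score is relative to mean and SD of the test wells; the first replicate is given; strong numbers were not always called active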
# Ba CapD inh – Bacillus anthracis CapD inhibitors, primary screen, biochemical, fluorescence intensity | CapD gamma-glutamyltranspeptidase (Bacillus anthracis Ames Ancestor) | purified CapD enzyme, fluorescence intensity read-out; stronger effect = lower value; some hits fall short of the stated cut | z-score (test concentration not listed) | 140,000 compounds, 0.23% hits | AID 492967, 2010;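 active means z-score under -4 in either of two replicates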;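 further: stock transfer was 100 nL into about 40 µL; score is relative to mean and spread of the plate; one replicate is shown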
# * marks the source's active call; other numbers are inactive results; nt = not tested or not shown. An unsorted share of the library; overall some 0.41% were active at least once.
SMILES,AID504770,Ba CapD inh
CCn1nnc2c(Nc3cccc(C)c3)ncnc21,-0.65,nt
COCCNC(=O)c1ccc2c(=O)n(Cc3ccc4c(c3)OCO4)c(SCC(=O)NCC3CCCO3)nc2c1 (centres undefined),nt,0.56
CCOc1ccc(N2CC(O)(c3ccc(C)cc3)[N+]3=C2SCCC3)cc1 (centres undefined),nt,0.005
CC1CCCC(NC(=O)COC(=O)c2cccc(Br)c2)C1C (centres undefined),-0.3,-0.4
Cc1cc(C(=O)COC(=O)[C@@H]2CCCN2C(=O)c2cccs2)c(C)n1-c1ccc2c(c1)OCCO2,-0.45,nt
Cc1ccc(CNc2nc3ccccc3s2)s1,0.4,0.645
CCN(CC)C(=O)CSc1nc2cccnc2n1C,-0.35,nt
O=C(O)C1CCCN(Cc2ccco2)C1 (centres undefined),-0.35,nt
CCN1CCN(C(=O)C2CCCN(c3nn4cc(-c5ccc(OC)cc5)nc4s3)C2)CC1 (centres undefined),-1.05,-0.635
Cc1sc(NC(=O)c2ccco2)c(C(c2cccnc2)N2CCCCC2)c1C (centres undefined),-0.4,-0.135
Cc1cccc(OCC(=O)NC(Cc2c[nH]c3ccccc23)C(=O)O)c1 (centres undefined),-0.85,-1.19
Cc1nc(CSc2ccccc2)cc(OCc2ccc(Cl)cc2)n1,nt,-0.305
CCCCNC(=O)CSc1nc2ccccc2n1S(=O)(=O)c1ccc(OC)cc1,nt,-0.47
CCOC(=O)C1=C(C)OC(N)=C(C#N)C1c1ccc2c(c1)CCO2 (centres undefined),-0.4,3.09
COc1ccc(C(=O)COC(=O)c2cccc(S(N)(=O)=O)c2)cc1,-0.1,nt
Cn1c(-c2sccc2OCc2ccc(Cl)cc2Cl)n[nH]c1=S,nt,6.29
CC1(C)Cc2ccccc2C(Nc2ccccc2)=N1,nt,-0.415
O=C(Nc1cccc(Cl)c1)c1c(NC(=O)C(F)(F)F)sc2c1CCC2,nt,-0.04
O=C(NCCc1ccccc1)c1cccc(N2C(=O)C3CC=CCC3C2=O)c1 (centres undefined),-2.1,19.3
O=C(Nc1ccc(Br)c(Cl)c1)C1CC1,1.3,0.415
Cn1cccc1C=NN1CCN(Cc2ccccc2)CC1,-0.45,-0.56
NC(=O)COC(=O)c1ccc(S(=O)(=O)Nc2ccccc2)cc1,-0.4,nt
C[C@@]12CCC(=O)[C@]1(C)CCC2=O,0.7,0.01
Cc1nn(Cc2ccc(C(=O)Nc3cc(Cl)cc(Cl)c3)o2)c(C)c1Br,-0.55,0.45
CC(Sc1ccc(Cl)cc1)C(=O)NN=C1CCN(C)CC1 (centres undefined),-0.4,-0.04
SMILES,AID504770,Ba CapD inh
O=S(=O)(c1ccc2c(c1)Cc1cc(S(=O)(=O)N3CCOCC3)ccc1-2)N1CCOCC1,nt,0.235
CC(C)(C)c1ccc(-c2nc3scc(-c4cccs4)c3c(=O)o2)cc1,nt,-0.05
CCc1cccc2c(=O)c(C(=O)N3CCCC3)c[nH]c12,0.1,nt
COc1ccc(-c2cc(C(F)(F)F)n3ncc(C(=O)NC(C)(C)C)c3n2)cc1,1.2,0.43
CC(C)C(NS(=O)(=O)c1ccc2c(c1)OCCO2)C(=O)OCN1C(=O)c2ccccc2C1=O (centres undefined),1.1,nt
Cc1cccc2cc(CC3CC(c4ccc(Br)cc4)=NN3C(=O)CCC(=O)O)c(=O)[nH]c12 (centres undefined),nt,0.78
Cc1ccc2nc3n(c(=O)c2c1)CCCc1nn(-c2nc4ccccc4s2)c(N)c1-3,1.35,nt
COC(=O)C1C2c3ccccc3O[C@]1(C)N=c1s/c(=C/c3ccc(C(C)C)cc3)c(=O)n12 (some centres undefined),nt,-0.315
CN(C)C(CNC(=O)c1cncc(Br)c1)c1cccs1 (centres undefined),-0.2,nt
Clc1ccc(-c2csc(-c3ccno3)n2)cc1,0.2,3.04
COc1ccc(N(Cc2coc(-c3ccccc3)n2)S(=O)(=O)c2ccccc2)cc1,-0.6,nt
Cc1ccccc1N=C1Nc2ccc3ccccc3c2C1=O,-0.5,3.68
Cc1ccc(C(=O)C2CN(c3ccccc3)CC2C(=O)c2ccc(C)cc2)cc1 (centres undefined),nt,0.1
COc1ccc(S(=O)(=O)n2c(SCC(=O)Nc3ccc(NC(C)=O)cc3)nc3ccc(OC)cc32)cc1,nt,-0.36
Cc1nc(C(=O)NN2C(=O)c3c(C(C)C)nc4ccccc4c3C2=O)cs1,nt,0.57
O=C1CCCN2N=C(SCc3ccc(C(F)(F)F)cc3)SC2=N1,-0.45,0.005
COCCN1C2=C(C(=O)CC(C)(C)C2)C(c2cc(Br)c(O)c(OC)c2)C2=C1CC(C)(C)CC2=O,-0.3,0.62
COc1ccc(CNn2c(-c3cc(OC)c(OC)c(OC)c3)nc3ccccc3c2=O)cc1OC,nt,-0.305
COc1ccc(C2CC(c3ccc(Br)cc3)=NN2C(=O)CSc2nnc3[nH]c(=O)cc(C)n23)cc1 (centres undefined),0.15,nt
O=C(CSc1ncnc2sc3c(c12)CCCC3)OC1CCCCC1,0.3,0.27
CC(C)(C)c1nc(NCc2cccs2)c2nnn(Cc3ccccc3Cl)c2n1,-0.55,nt
CN(CC(=O)Nc1nccs1)S(=O)(=O)c1ccc2c(c1)CCC(=O)N2,-1.1,0.07
Cc1cc(NC(=O)c2cccs2)n(-c2ccccc2)n1,-0.4,-0.495
COc1cccc(N2CCN(C(=O)Cn3c4ccccc4c(=O)c4cc(C)ccc43)CC2)c1,nt,0.995
CCOC(=O)Cc1cc(=O)[nH]c(/N=C(\N)Nc2ccc3ccccc3c2)n1,-0.35,nt
SMILES,AID504770,Ba CapD inh
O=C(O)c1cc2c(cc1NC(=O)C13CC4CC(CC(C4)C1)C3)OCCCO2,-0.6,nt
NS(=O)(=O)c1ccc(N2C(=O)C3C4C=CC(C4)C3C2=O)cc1 (centres undefined),-0.5,-0.155
NC(=O)CC1Nc2ccccc2NC1=O (centres undefined),0.25,2.4
Cc1ccccc1NC(=O)c1sc(N)c(C(N)=O)c1C,-1.15,1.19
CCOc1cc(=O)oc2ccc(Cl)cc12,-0.65,0.06
CCOC(=O)C1=C(N)OC2=C(C(=O)CC(c3ccccc3)C2)C1c1ccc(OCC)cc1 (centres undefined),nt,-0.405
COC(=O)c1ccc(COc2ccc(-c3nnn(CC(=O)NC(C)(C)C)n3)cc2)cc1,2,-0.46
O=C(Nc1cc(Cl)cc(Cl)c1)c1cc(S(=O)(=O)N2CCN(c3ccccc3)CC2)ccc1F,nt,-0.375
COC(=O)COc1ccc(-c2nccc(-c3ccc(Br)cc3)n2)cc1,nt,-0.04
COc1ccc2c(c1)c(=O)oc1cc(OC(C)C(=O)O)ccc12 (centres undefined),-0.9,74.2
COc1ccc(C2C(C#N)=C(O)NC(=O)C2[n+]2ccccc2)cc1OC (centres undefined),1.55,0.07
COc1ccc(C(C)=O)cc1CS/C(=N\S(=O)(=O)c1ccccc1)Nc1cccc(Cl)c1Cl,nt,-0.04
O=C(c1ccccc1Oc1ccccc1)N1CCN(c2ccccc2)CC1,1.1,nt
O=C(CSCc1ccc(Cl)c(Cl)c1)Nc1c[nH]c(=O)[nH]c1=O,1.4,-0.21
Cc1cccc(-c2nc3ccccc3c(=O)o2)c1,-0.3,0.08
COc1ccc(/C=C2\SC(=S)N(/N=C/c3ccc(OC)cc3)C2=O)cc1,-0.15,-0.18
CC(C)(C)NC(=O)Nc1cc(C(F)(F)F)cc(C(F)(F)F)c1,0.9,0.93
Fc1ccc(CSc2nc3ccccc3o2)cc1,1.1,0.26
COc1cc(OC)cc(-c2nc3ccccc3c(=O)n2NC(=O)/C=C/c2ccc(Br)cc2)c1,nt,-0.855
CCCNc1ccc(F)cc1,2.7,0.595
N/C(=N/O)c1ccccc1,-0.85,-0.215
COc1ccccc1NC(=O)C1CCN(c2nn3cc(-c4ccc(C)cc4)nc3s2)CC1,-0.65,1.4
C=CCn1c(SCC(N)=O)nnc1-c1ccc2[nH]c(C)c(C)c2c1,nt,-1.31
O=C(NC1CCCCNC1=O)OCC1(c2ccc(Cl)cc2)CC1 (centres undefined),nt,-0.365
COc1cc(C2Nc3cc(C)c(C)cc3NC3=C2C(=O)CC(C)(C)C3)c(OC)cc1Br (centres undefined),nt,1.94
SMILES,AID504770,Ba CapD inh
NC(=O)CC1SC(N)=NC1=O (centres undefined),0.8,nt
C1CCN(c2nc3nonc3n3nnnc23)C1,nt,-0.57
O=C(Sc1sc(=S)sc1SC(=O)c1ccccc1Br)c1ccccc1Br,nt,-0.885
COc1ccc(NC(=O)c2nn3c(c2Br)NC(c2cccs2)CC3C(F)(F)F)c(OC)c1 (centres undefined),nt,0.255
COc1cc(OCc2ccccc2)ccc1CN1CCN(c2ccc(C(F)(F)F)cn2)CC1,-0.5,-0.305
O=C(c1ccco1)N1CC2(c3ccccc3)CN(C(=O)c3ccco3)CC(c3ccccc3)(C1)C2=O,0.1,0.14
CC1(C)CCC(C(C)(C)O)CC1,0.6,1.47
CCC(c1nnnn1CCOC)N(Cc1cc2ccc(OC)cc2[nH]c1=O)C1CCCC1 (centres undefined),-0.6,nt
COc1cc(OC)cc(C(=O)N2CCC(c3ccccc3OC)CC2)c1,nt,0.48
CCc1ccc(N2CC(O)(c3ccc(OC)cc3F)[N+]3=C2SCCC3)cc1 (centres undefined),nt,-0.115
Cc1ccn(C(=O)c2ccc(NC(=O)C3CCCCC3)cc2)n1,0,nt
O=C1CS/C(=N/c2nc(-c3ccccc3)cs2)N1,1.4,nt
CCOC(=O)c1cc(C#N)c(N2CCN(S(=O)(=O)c3ccc(Cl)c(Cl)c3)CC2)nc1C(F)(F)F,nt,0.535
CN(c1ccc(Br)cc1)S(=O)(=O)c1ccc2[nH]cc(C(=O)NCCN3CCOCC3)c(=O)c2c1,nt,1.58
CSc1nc(N)nc(-c2cccs2)c1C#N,-0.8,5.89
Cc1nn(-c2ccccc2)c2c1C(c1ccccc1)C(NC(=O)c1ccccc1)C(=O)N2 (centres undefined),0.45,nt
NNc1nnc(Cl)c2ccccc12,-0.3,-0.75
O=C(c1ccco1)N1CCN(CC(O)COC(c2ccc(Cl)cc2)c2ccc(Cl)cc2)CC1 (centres undefined),-0.3,nt
COc1cccc(S(=O)(=O)N2CCCC2)c1,-0.15,-0.92
N#Cc1cc2c(=O)n3ccccc3nc2n(-c2nccs2)c1=O,0.4,33.9
CC(=O)Oc1cc(C)ccc1C(C)C,-0.05,nt
CCOc1ccccc1C1C(C(=O)OC)=CN(CC23CC4CC(CC(C4)C2)C3)C=C1C(=O)OC,0.1,59.8
CC1=CC=CC2C(=O)/C(=C\c3sc(=S)[nH]c3O)C(=NCCCn3ccnc3)N=C12 (centres undefined),1.35,nt
Cc1ccc2c(c1)c1c(n2CC(O)Cn2ccnc2C)C(=O)CCC1 (centres undefined),0.35,6.91
C[C@H](NC(=O)c1ccco1)C(=O)Nc1cccc(-c2nnc3n2CCCCC3)c1,0.5,nt

# Structural class: the compounds so far containing a CF3 group (seven)
SMILES,AID504770,Ba CapD inh
O=C(Nc1cccc(Cl)c1)c1c(NC(=O)C(F)(F)F)sc2c1CCC2,nt,-0.04
COc1ccc(-c2cc(C(F)(F)F)n3ncc(C(=O)NC(C)(C)C)c3n2)cc1,1.2,0.43
O=C1CCCN2N=C(SCc3ccc(C(F)(F)F)cc3)SC2=N1,-0.45,0.005
CC(C)(C)NC(=O)Nc1cc(C(F)(F)F)cc(C(F)(F)F)c1,0.9,0.93
COc1ccc(NC(=O)c2nn3c(c2Br)NC(c2cccs2)CC3C(F)(F)F)c(OC)c1 (centres undefined),nt,0.255
COc1cc(OCc2ccccc2)ccc1CN1CCN(c2ccc(C(F)(F)F)cn2)CC1,-0.5,-0.305
CCOC(=O)c1cc(C#N)c(N2CCN(S(=O)(=O)c3ccc(Cl)c(Cl)c3)CC2)nc1C(F)(F)F,nt,0.535

# Three of these compounds, set out differently:
mol	AID504770	Ba CapD inh
Cc1cccc(OCC(=O)NC(Cc2c[nH]c3ccccc23)C(=O)O)c1 (centres undefined)	-0.85	-1.19
Cc1ccccc1N=C1Nc2ccc3ccccc3c2C1=O	-0.5	3.68
Cc1cc(C(=O)COC(=O)[C@@H]2CCCN2C(=O)c2cccs2)c(C)n1-c1ccc2c(c1)OCCO2	-0.45	nt

# The list goes on:
SMILES,AID504770,Ba CapD inh
COc1ccc(CCn2c(C)cc(C(=O)CSc3nnc(-c4cccnc4)n3C3CC3)c2C)cc1,2.75,nt
O=C(O)CCC(=O)Nc1ccccc1Oc1ccccc1,-0.6,0.39
NC(=O)Cn1cnc2sc3c(c2c1=O)CCCC3,-0.3,nt
CCOC(=O)c1ccoc1CN1c2cccc3cccc(c23)S1(=O)=O,1.2,nt
COc1cc(/C=C2/SC(=S)N(c3cccc(C(F)(F)F)c3)C2=O)ccc1OCC(=O)O,nt,-0.5
CN(Cc1csc(Nc2ccccc2)n1)Cc1cccs1,-0.7,nt
CC1CC(C)CN(C(=O)c2cc3ccc4cccnc4c3[nH]2)C1 (centres undefined),-0.6,0.325
CCC(C)OC(=O)COc1ccc2c(=O)c(Oc3cc(C)ccc3C)coc2c1 (centres undefined),-0.2,0.25
N#Cc1ccc(NC(=O)CC2(CC(=O)O)CCCCC2)cc1,-0.5,nt
CC(C)Cc1nnc(NC(=O)c2ccccc2)s1,0.1,nt
CS(=O)(=O)CS(=O)(=O)NCc1cccs1,0.2,0
O=C(CC1CCCC1)OCCN1CCCC1=O,1.95,-1.19
Cc1noc(C)c1CSc1nc2ccccc2c(=O)n1CC1CCCO1 (centres undefined),0.7,nt
Cc1ccc(NC(=O)c2sc3nc4c(c(-c5ccco5)c3c2N)CCCC4)cc1,nt,-0.08
Cc1cccc(-n2cnc3cc(C(=O)N4CCCCC4)ccc32)c1,-0.2,1.07
O=C(Cn1ncc2c([nH]c3ccccc32)c1=O)Nc1ccc(Cl)cn1,0.2,0.55
N#CC1=C(N)Oc2c(sc3ccccc23)C1c1ccccc1 (centres undefined),-0.05,0.26
